Source: PubChem (National Center for Advancing Translational Sciences (NCATS))
gsp antag – qHTS for Antagonists of gsp, the Etiologic Mutation Responsible for Fibrous Dysplasia/McCune-Albright Syndrome: qHTS; Potency, µM (top dose mostly 76.9 µM), for the others: at the top dose activity change, negative = inhibition, usual class: inhibitors; gsp-mutant cells, cAMP HTRF, 30 min; control for the full effect not named in the record; 0.4% of 340,000 active; active = falling curve of any shape with a large fitted effect; inconclusive = falling curve, mostly with a smaller effect; inactive = flat or rising curve; cell line not stated here;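 note: intracellular cAMP measured with PDE inhibitor Ro 20-1724 present during compound exposure; potency is the fitted concentration of half-maximal effect; % is set by controls: 0 for no effect and ±100 for the full control effect; nearly all actives have a fitted effect of over 65% in size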
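Cells in G418 medium, seeded 16-24 h, 37C; buffer exchange to DPBS + 1 mM CaCl2, 0.5 mM MgCl2, 0.05% BSA; cpds in DMSO + […] (300 uM stock), 30 min 37C; HTRF cAMP detection.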
Six1-Eya2 blk – qHTS Assay for Inhibitors of the Six1/Eya2 Interaction; Homeobox protein SIX1 (Homo sapiens) + Protein phosphatase EYA2 (Homo sapiens), …; AlphaScreen GST-Six1/His-Eya2 binding, biochemical; hits give low values; control for the full effect not named in the record; activity change, % (concentration not given with the values); 0.56% of 360,000 active; in the data active = activity change below about -65%; inconclusive = about -30% to -65%; inactive = above about -30%; note: % is set by controls: 0 for no effect and ±100 for the full control effect
Target sequence (O00167 whole entry, looked up): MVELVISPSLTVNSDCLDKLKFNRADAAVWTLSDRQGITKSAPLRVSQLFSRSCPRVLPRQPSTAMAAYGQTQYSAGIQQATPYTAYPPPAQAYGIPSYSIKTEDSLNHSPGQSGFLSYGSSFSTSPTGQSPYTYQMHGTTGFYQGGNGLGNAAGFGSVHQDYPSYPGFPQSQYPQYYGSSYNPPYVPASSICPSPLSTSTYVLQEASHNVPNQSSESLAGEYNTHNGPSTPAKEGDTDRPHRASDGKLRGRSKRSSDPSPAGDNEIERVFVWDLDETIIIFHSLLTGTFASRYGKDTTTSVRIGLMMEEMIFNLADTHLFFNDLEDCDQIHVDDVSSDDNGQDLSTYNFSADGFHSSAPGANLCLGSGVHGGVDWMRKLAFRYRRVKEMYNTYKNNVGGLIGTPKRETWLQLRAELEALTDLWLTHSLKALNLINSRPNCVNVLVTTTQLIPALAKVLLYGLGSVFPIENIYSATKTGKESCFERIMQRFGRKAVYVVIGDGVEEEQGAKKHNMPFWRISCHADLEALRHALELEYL
Target sequence (Q15475 whole entry, looked up): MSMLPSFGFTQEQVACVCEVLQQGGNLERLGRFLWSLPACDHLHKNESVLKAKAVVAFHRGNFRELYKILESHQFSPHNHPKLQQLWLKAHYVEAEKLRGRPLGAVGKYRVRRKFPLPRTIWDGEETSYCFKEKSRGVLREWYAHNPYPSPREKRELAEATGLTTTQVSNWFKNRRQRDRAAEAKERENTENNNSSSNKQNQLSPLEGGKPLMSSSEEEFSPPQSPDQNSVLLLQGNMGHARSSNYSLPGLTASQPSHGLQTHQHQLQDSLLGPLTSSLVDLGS
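Six1/Eya2 binding was read as AlphaScreen signal after compounds were pinned into GST-Six1 plus His-tagged Eya2 (5X stock 250/500 nM) in pH 8.0 Tris/NaCl/TCEP buffer, beads added, then incubated 1 h, 37 C, dark.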
D2 potentiator – Beta-Arrestin HTS for Positive Allosteric Modulators of the Human D2 Dopamine Receptor: Potentiators; D(2) dopamine receptor (Homo sapiens), P14416; DiscoveRx D2 beta-arrestin cells, luminescence, 90 min; 100% = 57 uM dopamine signal; potentiation, % (no concentration beside the values); 0.23% of 360,000 active; AID 624464, 2012; active = potentiation of 50% or more; inconclusive = 30% to 50%; inactive = 30% or less;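 note: compound concentration not given in the record; tested on top of an EC20 dose of dopamine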
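PathHunter beta-arrestin assay in DiscoveRx D2 cells. Compounds were added with an EC20 of dopamine (50 nM final) for 90 min at 37 deg C. Luminescence was read 1 h after detection reagent, with 57 uM dopamine as the EC100 control.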
gsp agonist – qHTS for Agonist of gsp, the Etiologic Mutation Responsible for Fibrous Dysplasia/McCune-Albright Syndrome: qHTS | gsp mutant cells, cAMP HTRF, 30 min; control for the full effect not named in the record | Potency, µM (doses to about 76.9 µM), without a hit: at the highest dose activation (cAMP increase), most hits filed as activators | 0.13% of 340,000 active; active = well fitted activation curve with a large enough effect; inconclusive = small, poorly fitted or top-dose-only effect, or another doubt; inactive = no such curve, though single readings can be large or run the other way; cell line not stated here;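 note: phosphodiesterase inhibitor Ro 20-1724 added with compounds to block cAMP breakdown; potency is the fitted concentration of half-maximal effect; nearly all actives have a fitted effect of over 60% in size; about a fifth of the inactives were tested at one dose only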
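Cells stably selected in G418 were plated at 2000/well, grown 16-24 hr, then given compounds in DMSO with the PDE inhibitor […] (300 uM solution added) for 30 min at 37C; cAMP was read by HTRF.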
CtBP-E1A blk – qHTS Assay for Inhibitors of the CtBP/E1A Interaction | activity change, % (concentration not given with the values) | AID 651724, 2012 | CtBP / adenovirus E1A interaction (AlphaScreen) | 0.49% of 340,000 active | AlphaScreen GST-E1A/His-CtBP binding, 1536-well; hits give low values; control for the full effect not named in the record; in the data active means activity change below about -65%; inconclusive means about -30% to -65%; inactive means above about -30%; note: % is set by controls: 0 for no effect and ±100 for the full control effect
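Steps: dispense buffer (Tris pH 8.0, NaCl 300 mM, TCEP 1 mM, BSA, Tween 20); add 5X protein mix (GST-E1A, His-CtBP, 125 nM each); pin 23 nL compound; 2 h at 37 °C, dark; add 5X beads (50 ug/mL); 1 h; read.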
D2 agonist – Beta-Arrestin HTS for Positive Allosteric Modulators of the Human D2 Dopamine Receptor: Agonists; D(2) dopamine receptor (Homo sapiens), P14416; DiscoveRx PathHunter D2 beta-arrestin, luminescence, 90 min; 100% = 57 uM dopamine signal; activation, % (no concentration beside the values); 0.084% of 360,000 active; in the data active = activation above about 40%; inconclusive = about 15% to 40%; inactive = below about 15%; note: compound concentration not given in the record; the text of the record calls up to 30% inactive
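Agonist mode: compounds alone added to overnight-plated D2 PathHunter cells for 90 min at 37 C, with 57 uM final dopamine (EC100) defining full response. Beta-arrestin recruitment detected by chemiluminescent reagent, read after 1 h at ambient temperature.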
The depositor's hits bear a star; ? = inconclusive; / = not tested or not shown; [ ] = remark or other dose. Hits appear at their usual frequency. About 1.4% of those tested had a hit in this group.

Every second line gives: gsp antag | Six1-Eya2 blk | D2 potentiator | gsp agonist | CtBP-E1A blk | D2 agonist
CCn1cnc2cc(NCc3ccc(C)cc3)ccc21
    -6% | -17 | -20 | 9% | 1 | -2.4
Cc1ccc(-c2nnn(CC(=O)N(c3ccccc3F)C(C(=O)NC3CCCC3)c3ccco3)n2)o1 (stereo not drawn)
    -11% | -12 | -23 | 14% | -4 | -2.6
COc1ccc(Cc2nnc(SCC(=O)NCCc3ccccc3)o2)cc1
    -8% | 0 | 7 | 6% | 3 | -0.4
CC(C)n1ncc2c(C(=O)N3CCN(Cc4cccs4)CC3)cc(C3CC3)nc21
    / | -4 | -22 | 8% | -10 | -2.1
O=C(CN(CCO)c1ccccc1)Nc1ccc(Cl)c(S(=O)(=O)N2CCOCC2)c1
    -13% | 4 | -2 | 20% | -10 | 0.2
CN(C)S(=O)(=O)c1ccc(S(=O)(=O)NC2CCOC(C)(C)C2)cc1 (stereo not drawn)
    8% | 3 | -3 | -3% | 3 | 0.0
CCCn1c(=O)c(C(=O)NCc2ccncc2)c(O)c2ccccc21
    2% | -5 | -7 | ? | -10 | 0.3
COc1cccc(CC(=O)Nc2nc(-c3ccc(F)c(F)c3)cs2)c1
    -7% | 5 | 3 | -12% | 31 | 3.6
C1=C(CCNCC2CC2)CCCC1
    -3% | 7 | -16 | 8% | 0 | -1.4
COc1ccc(C)cc1S(=O)(=O)NCC(c1ccco1)N1CCc2ccccc2C1 (stereo not drawn)
    -7% | -10 | 7 | -66%[inhibitor] | -2 | -4.2
Cc1cc(Cl)ccc1NC(=S)NCCCN1CCCC1=O
    5% | 2 | -14 | 12%[15.4 µM] | 0 | -3.3
O=C(Nc1ncccc1O)c1ccc2c(c1)OCCO2
    11% | -6 | -1 | -10%[15.4 µM] | 0 | -0.4
Cc1n[nH]c(C)c1S(=O)(=O)N1CCC(C(=O)O)CC1
    2% | 1 | 1 | -6% | 2 | -2.0
CC(C)c1ccc(S(=O)(=O)NCc2ccc3c(c2)OCO3)cc1
    -2% | 3 | -13 | -2%[15.4 µM] | 1 | -2.4
CCOc1ccccc1Oc1c(C)oc2cc(OC(=O)c3ccco3)ccc2c1=O
    -22% | 3 | 6 | 31% | 7 | -0.6
CCN(CC)C(=O)C1=C(C)N(CCCN2CCCC2=O)C(=O)C(CC(=O)NC2CC2)C1 (stereo not drawn)
    / | -2 | 0 | -5% | -3 | -7.4
Cc1cc(C(=O)NCc2ccccc2Cl)n(-c2ccccc2)n1
    -3% | 0 | -5 | -35%[inhibitor] | 2 | -1.3
O=c1[nH]cc(S(=O)(=O)Nc2ccc3c(c2)OCO3)c(=O)[nH]1
    -8% | 10 | -11 | 14%[15.4 µM] | 13 | -3.1
O=C(Nc1ccc2c(c1)OCCO2)C(c1ccnc2ccccc12)N1CCN(C/C=C/c2ccccc2)CC1 (stereo not drawn)
    / | -23 | -10 | / | ? | -1.5
CCCn1c(SCC(=O)Nc2nc(C)c(C(=O)OC)s2)nnc1C(C)C
    -14% | -3 | -15 | 21% | -2 | 1.1
COc1ccc(CNC(=O)[C@]2(C)CCC[C@@]3(C)C4CC[C@@]5(C)C[C@]4(CCC32)CC5=O)cc1 (stereo partly drawn)
    -10% | -1 | -5 | / | -4 | -1.9
Cc1ccc(NC(=O)CN2c3cccc4cccc(c34)S2(=O)=O)cc1S(=O)(=O)N1CCOCC1
    -3% | 1 | 25 | -24% | -4 | 4.7
O=C(CN1CCCCCC1)OCCN=C1NS(=O)(=O)c2ccccc21
    14% | 26 | -6 | -34%[inhibitor] | 0 | -3.8
COc1ccc(NC(=O)C23CC4CC(CC(Cl)(C4)C2)C3)cc1S(=O)(=O)N1CCOCC1
    0% | 1 | -3 | 12% | 2 | -3.9
Cn1c(=O)oc2cc(S(=O)(=O)Nc3ccccc3)ccc21
    3% | 11 | -5 | 1%[15.4 µM] | -3 | -1.2
CC(=O)c1sc(NS(=O)(=O)c2ccc(C)cc2)nc1C
    -10% | -2 | 1 | -2%[15.4 µM] | -14 | -1.5
OCC(O)CNC(=S)NC1CCCCC1 (stereo not drawn)
    17% | 4 | -1 | 0%[15.4 µM] | -15 | -8.0
CCC(C)C(=O)Nc1nnc(-c2cccs2)s1 (stereo not drawn)
    2% | -3 | 4 | 0% | 0 | 1.3
CC1CN(c2cnn(C(C)C)c(=O)c2Cl)CC(C)O1 (stereo not drawn)
    9% | -16 | -8 | -5% | -8 | -2.4
O=C(Nc1ccc(C(=O)N2CCC(N3CCOCC3)CC2)cc1)c1ccc(Br)o1
    5% | 5 | -1 | / | 6 | -0.5

The last 3 entries of the part above come first, to join the parts:
Every second line gives: gsp antag | Six1-Eya2 blk | D2 potentiator | gsp agonist | CtBP-E1A blk | D2 agonist
CCC(C)C(=O)Nc1nnc(-c2cccs2)s1 (stereo not drawn)
    2% | -3 | 4 | 0% | 0 | 1.3
CC1CN(c2cnn(C(C)C)c(=O)c2Cl)CC(C)O1 (stereo not drawn)
    9% | -16 | -8 | -5% | -8 | -2.4
O=C(Nc1ccc(C(=O)N2CCC(N3CCOCC3)CC2)cc1)c1ccc(Br)o1
    5% | 5 | -1 | / | 6 | -0.5
Cc1ccc2c(c1)C1(SCCS1)C(=O)N2
    3% | 4 | -6 | 3% | 9 | -1.7
Cc1ccc(C)c(NC(=O)CCC(=O)N2CCOc3ccccc32)c1
    5% | -5 | -9 | -14% | 5 | -0.2
CCCCNc1nc2ccccc2nc1NS(=O)(=O)c1ccc(F)cc1
    ? | 4 | -10 | 8%[15.4 µM] | 9 | -2.9
S=C(c1nc2ccccc2[nH]1)N1CCOCC1
    7% | 1 | 10 | -53%[inhibitor] | 0 | -0.3
COC(=O)c1cn(NC(=O)C2CCCCC2)c(=O)c2ccccc12
    -18% | -1 | -14 | 21% | 0 | -3.2
CCc1nc2ccc(C(=O)NCCCN(C)C)cn2c1N(C)Cc1ccc(OC)cc1
    / | ? | -15 | / | -14 | -7.8
CC(=O)N1CCC(=NNc2ccc(S(N)(=O)=O)cc2[N+](=O)[O-])CC1
    -1% | 10 | -1 | 8%[15.4 µM] | 1 | -0.8
COC(=O)C1C(=O)c2c([nH]c(C(=O)OCCOC(C)C)c2C)CC1C (stereo not drawn)
    -10% | -10 | 8 | 25% | 1 | -2.9
NC(=O)c1cc(C(=O)c2ccc(Cl)cc2Cl)c[nH]1
    5% | 20 | -1 | -21%[15.4 µM] | 0 | 0.6
O=C(Cc1cccs1)Nc1nnc(SCC(=O)NC2CCCCC2)s1
    2% | 14 | -4 | -4% | -3 | -1.6
CN(C)/C=C1\N=C(c2ccc3c(c2)OCO3)OC1=O
    -8% | -14 | -8 | -12% | -5 | -5.2
Cc1cc(C)c(NC(=O)C(C)OC(=O)c2cc(Br)c(Br)s2)c(C)c1 (stereo not drawn)
    -2% | 2 | -6 | -38% | 11 | -4.0
Cc1noc(C)c1NC(=O)Nc1ccc2c(c1)C(=O)N([C@H](C)CO)C[C@H](C)[C@@H](CN(C)S(C)(=O)=O)O2
    3% | -4 | -6 | / | -25 | -2.4
O=C(/C=C/c1ccccc1)c1ccc2c(c1)OCCCCO2
    -15% | 0 | -1 | -6% | 2 | -8.8
N#Cc1c(-c2ccc(Cl)cc2)c(-c2ccc(Cl)cc2)nn(CCOC(=O)CCC(=O)O)c1=O
    -17% | -2 | -6 | 2% | -2 | 1.9
CCNC(=O)C1(C)CCCN(C(=O)c2nc3ccccc3s2)C1 (stereo not drawn)
    / | -1 | -4 | / | 7 | -3.3
N#Cc1ccccc1OCC(=O)NC1CCCCC1
    -3% | -5 | -18 | 0%[15.4 µM] | -2 | -3.0
O=C(O)CCCCCNS(=O)(=O)c1ccc2c3c(cccc13)C(=O)N2
    8% | ? | 12 | 0%[15.4 µM] | 7 | -1.3
CCCCc1nc(N2CCOCC2)c(C#N)c2c1CCCC2
    -12% | 18 | -21 | 19% | 7 | -0.4
COc1ccc(-c2cc(C(=O)NCC3CCCCC3)[nH]n2)c(C)c1
    / | -2 | -23 | / | 0 | -2.3
COc1ccc(-c2c(C)nn3c(Cl)c(C)c(C)nc23)cc1
    -23% | -4 | -38 | -4%[15.4 µM] | -4 | -8.3
CCCC(=O)N1CCN(c2nc3ccc(Cl)cc3s2)CC1
    -13% | 0 | 2 | ? | / | 6.1
CCOC(=O)N1CCC(N2CCCC(C(=O)c3cccc(OC)c3)C2)CC1 (stereo not drawn)
    7% | 0 | -30 | 49% | 2 | 3.0
CCN(CC)C(=O)c1sc(NC(=O)C(C)C)c(C#N)c1C
    -10% | 0 | -5 | ? | 11 | -0.8
Cc1ccnc(SCCn2c(N3CCC(C)CC3)nc3c2c(=O)[nH]c(=O)n3C)n1
    1% | 1 | -4 | -39%[inhibitor] | 2 | -0.9
COCc1cccc(-c2csc(C(C)(O)c3cccc(F)c3)n2)c1 (stereo not drawn)
    / | 2 | -21 | / | 10 | -2.4
O=c1c2ccccc2nnn1Cc1ccc(F)cc1
    3% | -5 | -9 | -1%[15.4 µM] | 10 | -8.2
Nc1c(C(=O)N2CCOCC2)sc2nc3c(cc12)CCC3
    5% | 2 | -1 | -27% | 5 | 0.5
CCC(C(=O)N1CC2(C)CC1CC(C)(C)C2)N1C(=O)c2ccccc2C1=O (stereo not drawn)
    1% | 6 | -15 | -34%[inhibitor] | 2 | -2.7
CCc1ccc(-n2cccc2/C=C2/C(=N)N3C(=NC2=O)SN=C3S(C)(=O)=O)cc1
    -17% | -14 | -5 | -2% | / | -5.5
O=C(c1cccc([N+](=O)[O-])c1)N1CCc2ccccc21
    3% | -1 | 1 | -12% | / | -0.3
CC1(C2CC2)NC(=O)N(CC(=O)N2CCN(c3ccccc3)CC2)C1=O (stereo not drawn)
    6% | -3 | -5 | 13% | -2 | -3.4

One compound at a time (already shown).
Listed for CC1(C2CC2)NC(=O)N(CC(=O)N2CCN(c3ccccc3)CC2)C1=O (stereo not drawn) : gsp antag: 6%; Six1-Eya2 blk: -3; D2 potentiator: -5; gsp agonist: 13%; CtBP-E1A blk: -2; D2 agonist: -3.4
Listed for CN(C)/C=C1\N=C(c2ccc3c(c2)OCO3)OC1=O : gsp antag: -8%; Six1-Eya2 blk: -14; D2 potentiator: -8; gsp agonist: -12%; CtBP-E1A blk: -5; D2 agonist: -5.2
Listed for O=C(/C=C/c1ccccc1)c1ccc2c(c1)OCCCCO2 : gsp antag: -15%; Six1-Eya2 blk: 0; D2 potentiator: -1; gsp agonist: -6%; CtBP-E1A blk: 2; D2 agonist: -8.8
